FGF22 binding = binders of recombinant human FGF22 by thermal shift | Q9HCT0 | calls only at 9.99 µM | SYPRO orange fluorescence; percent of sucrose octasulfate shift, DMSO zero | 1.5% of 340,000 active | AID 651658;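 active means melting point raised past a set limit in the mean and every replicate; inconclusive means no clear call; three in four hits are not shown here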
Target sequence (Q9HCT0 whole entry, looked up): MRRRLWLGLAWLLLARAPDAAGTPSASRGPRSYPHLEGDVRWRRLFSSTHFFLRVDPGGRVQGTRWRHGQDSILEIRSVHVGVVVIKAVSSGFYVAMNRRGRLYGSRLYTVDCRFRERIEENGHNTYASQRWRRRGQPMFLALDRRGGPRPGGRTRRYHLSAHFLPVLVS
ALR H2O2 inh = blocks human ALR sulfhydryl oxidase activity; 3.8% of 290,000 active; purified ALR, DTT oxidation, H2O2 HRP-luminol luminescence; inhibition, % (concentration not given with the values);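 active means mean and each replicate at 75% or more; inconclusive means only one of the two met; inactive means neither met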;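 further: stock transfer was 7.5 nL into about 7.5 µL; 0% = neutral wells and 100% = wells with inactivated enzyme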
Target sequence (P55789 whole entry, looked up): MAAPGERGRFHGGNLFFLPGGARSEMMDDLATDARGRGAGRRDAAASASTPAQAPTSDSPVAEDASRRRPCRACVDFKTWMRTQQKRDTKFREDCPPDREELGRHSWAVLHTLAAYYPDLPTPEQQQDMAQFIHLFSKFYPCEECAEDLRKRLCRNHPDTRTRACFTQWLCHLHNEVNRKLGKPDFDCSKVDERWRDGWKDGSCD
Vif TR-FRET = inhibitors of Vif binding to APOBEC3G peptide, primary screen, biochemical, TR-FRET, GST-Vif 1-94, biotin-A3G peptide, dose response retest (AID 1117319); TR-FRET GST-Vif / biotin-A3G peptide binding; higher % means a stronger effect; test concentration not given here; strong numbers were not always called active; one-dose inhibition, %; IC50 in µM for titrated hits; 0.57% of 260,000 active;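 active means above the screen mean plus three standard deviations and confirmed in dose response; inconclusive means results disagree or hit not tested in dose response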;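 further: Vif residues 1-94 fused to GST binding biotinylated APOBEC3G peptide 110-148; 0% = full assay without inhibitor and 100% = GST in place of GST-Vif; retest series ran down from 100 µM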
AF4-AF9 inh = MLL-AF4/AF9 protein interaction inhibition; AlphaScreen, biotin-AF4 peptide binding to FLAG-AF9; AID 651704; P42568; inhibition, % at 10 µM; 0.47% of 350,000 active;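 active means every replicate reaching a set inhibition limit, whatever the replicate mean, cut at about 25% in these data; inconclusive means mean inhibition reaches that limit but some replicates miss it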;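 further: 0% = plate neutral control median and 100% = total signal loss; the record names both 10 and 1 µM as test concentration; the first replicate is given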
Target sequence (P42568 whole entry, looked up): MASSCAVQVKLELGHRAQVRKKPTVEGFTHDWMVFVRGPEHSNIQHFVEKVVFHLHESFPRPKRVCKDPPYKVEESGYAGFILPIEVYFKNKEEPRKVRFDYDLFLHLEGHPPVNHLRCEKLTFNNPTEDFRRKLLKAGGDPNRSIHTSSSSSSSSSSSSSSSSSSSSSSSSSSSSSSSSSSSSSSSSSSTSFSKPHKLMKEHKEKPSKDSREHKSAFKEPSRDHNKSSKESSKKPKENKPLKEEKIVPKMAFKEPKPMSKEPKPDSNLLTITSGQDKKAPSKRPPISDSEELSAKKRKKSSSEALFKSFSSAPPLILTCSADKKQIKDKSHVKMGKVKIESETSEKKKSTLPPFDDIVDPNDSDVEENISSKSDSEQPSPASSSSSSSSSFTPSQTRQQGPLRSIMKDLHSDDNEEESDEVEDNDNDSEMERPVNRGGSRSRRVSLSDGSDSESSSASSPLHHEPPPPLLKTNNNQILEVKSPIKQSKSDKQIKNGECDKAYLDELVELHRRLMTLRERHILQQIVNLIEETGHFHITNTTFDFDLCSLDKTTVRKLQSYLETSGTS
HNF4A DNA FP = change in binding of human HNF4 alpha to DNA; 0.3% of 360,000 active; AID 1224865; activity change, % at 10 µM; HNF4a-FITC DNA binding, fluorescence polarization, 1 h; P41235; in the data active means activity change above about 30%, passing the limit was not always enough;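 further: controls were the assay level and a saturating level of protein; the project sought stronger binding though the title names inhibitors; some compounds called inactive have numbers as strong as hits; positive values seem to mean higher polarization but the record does not say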
rRNA inh HTS = inhibitors of bacterial rRNA selective over humanized ribosomes. GFP signal change (wild-type ribosome), % (test concentration not listed). AID 720706. E. coli WT GFP vs humanized-ribosome RFP mutants, fluorescence, 24 h; active compounds read low; DMSO median 0, no signal -100. 1.6% of 350,000 active;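 active means significant combined selectivity score with lowered wild-type GFP, culture density cut under 30%, mutant RFP and density less affected; inactive means any of these conditions unmet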; further: one replicate is shown; some compounds called inactive have numbers as strong as hits
E coli growth = blocks Escherichia coli growth; OD600, 23 h; active compounds read low; OD600 absorbance (test concentration not listed); 0.21% of 330,000 active; AID 1053175;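 active means OD600 absorbance below the run mean of sample wells minus 3.6 SD, in any replicate, cut at about 0.56 in these data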;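 further: stock transfer was 300 nL into about 60 µL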
rRNA inh HTS OD600 = further read-out of rRNA inh HTS, marked with its call; OD600 change, %; measured here: OD600 growth;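 optical density of the mix in the first replicate; 0 = DMSO median and -100 = no signal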
rRNA inh HTS RFP = second read-out of rRNA inh HTS, no call of its own (marks repeat the call); RFP signal change, %; measured here: RFP humanized mutant strains;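 first replicate; 0 = DMSO median and -100 = no signal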
* = called active by the depositor; i = inactive; ? = inconclusive; / = not tested or not shown; + = active, no number.

FGF22 binding | ALR H2O2 inh | Vif TR-FRET | compound | AF4-AF9 inh | HNF4A DNA FP | rRNA inh HTS | rRNA inh HTS OD600 | rRNA inh HTS RFP | E coli growth
i | / | / | Cc1c(C(c2cc(O)ccc2Cl)c2c(C)n(C)n(-c3ccccc3)c2=O)c(=O)n(-c2ccccc2)n1C | -2.2 | -3.8 | 17 | 6 | 1.0 | /
i | / | 23% | Nc1cccnc1Sc1ccc([N+](=O)[O-])cn1 | 1.1 | 1.5 | 17 | 14 | 5.9 | 0.68
i | -5 | / | CCCn1c(SCC(=O)NCc2ccco2)nnc1-c1ccncc1 | -11 | -1.7 | 5 | 5 | -1.9 | 0.63
i | -5 | -2% | COc1cccc(CNC(=O)CC2C(=O)NCCN2CCCc2ccccc2)c1 (centres undefined) | 2.6 | 1.1 | 3 | 6 | 4.2 | 0.64
i | / | / | COCC(=O)N(C)C[C@H]1Oc2ncc(C#C[C@@H](C)O)cc2C(=O)N([C@H](C)CO)C[C@H]1C | -2.6 | / | 6 | 10 | 1.6 | /
/ | 99* | 5% | C=COC(=O)CSc1snc(SCC(=O)OC)c1C#N | / | 2.4 | / | / | / | 0.78
i | -6 | 20% | COc1ccc2ccccc2c1CNCCCN1CCOCC1 | 2.3 | 0.1 | 13 | 13 | -0.8 | 0.66
/ | 2 | / | CC(=O)NC(CC(=O)NC12CC3CC(CC(C3)C1)C2)c1ccccc1 (centres undefined) | / | -0.1 | / | / | / | 0.67
i | / | / | C[C@@H]1CN([C@H](C)CO)C(=O)c2cccc(NS(=O)(=O)c3ccccc3)c2O[C@H]1CN(C)S(=O)(=O)c1cccs1 | -1.2 | / | -1 | -4 | 0.4 | /
i | -3 | / | O=C(NCCc1ccccc1F)C1CCC(=O)N(CCCN2CCCC2=O)C1 (centres undefined) | -4.6 | -1.0 | 10 | 16 | -3.2 | 0.69
i | -13 | / | CCN1CCN(C(c2cccs2)C(C)NC(=O)c2cccc(OC)c2)CC1 (centres undefined) | 4.5 | 5.8 | 2 | 7 | 0.5 | 0.8
i | 99* | / | CN1c2ccc(C=O)c3c(C=O)ccc(c23)N(C)C1(C)C | 6.8 | -43 | 4 | -33 | 48 | 0.64
i | / | / | CC(C)n1c(=O)c2ccccc2n1Cc1cn(Cc2cccs2)nn1 | -1.1 | 1.2 | 6 | 7 | 8.4 | /
i | 3 | / | CC1CCCCN1S(=O)(=O)c1cnc(Cl)c(Br)c1 (centres undefined) | -5.6 | 0.1 | 9 | -1 | -12 | 0.7
/ | -4 | ? | CCOc1ccc(NC(=O)c2ccc(OC)cc2)cc1 | / | -1.1 | / | / | / | 0.68
/ | -13 | / | Clc1ccc(CNc2nc(CN3CCOCC3)nc3scc(-c4ccccc4)c23)cc1 | / | 1.9 | / | / | / | 0.71
i | -7 | 12% | CC1(C)CC(=O)C(N=Nc2ccc(OC(F)F)cc2)=C(O)C1 | 4.9 | 3.5 | -5 | -4 | -0.6 | 0.74
/ | -6 | -4% | CSc1nc2ccccc2cc1/C=C(\C#N)c1ccc(Cl)cc1Cl | / | 3.5 | / | / | / | 0.75
i | -68 | / | COc1ccc2c(c1)C1=NN(/C(C)=C/C(C)=O)C(c3ccc(F)cc3)C1CC2 (centres undefined) | 8.5 | 9.8 | -27 | -23 | 0.8 | 0.65
/ | -1 | 2% | COCCCNC(=O)CCCn1c(=O)c2ccccc2n(CC(=O)Nc2c(C)cc(C)cc2C)c1=O | / | -1.8 | / | / | / | 0.68
/ | -6 | 2% | CC(NC(=O)C1CC2CCCC(C1)C2=O)c1ccccc1 (centres undefined) | / | 3.5 | / | / | / | 0.75
i | / | / | Cc1ccc(-c2cc([C@H]3[C@H]4C=CC[C@@H](C)[C@@H]4C(=O)N3Cc3ccccc3)ccc2F)cc1 | / | 0.7 | 12 | 1 | -1.9 | /
i | -2 | 7% | CCN(C1CCCCC1)S(=O)(=O)c1c(C)n(C)c(=O)n(C)c1=O | -3.2 | -0.7 | 5 | 7 | 2.4 | 0.7
i | / | / | C[C@@H]1CN([C@H](C)CO)C(=O)c2cc(NC(=O)C3CC3)ccc2O[C@H]1CN(C)CC1CCCCC1 | -5.7 | / | 5 | 6 | -1.5 | /
/ | -10 | -4% | COc1ccc(N(CC(=O)Nc2cccc(C(F)(F)F)c2)S(C)(=O)=O)cc1 | / | -0.2 | / | / | / | 0.66

Three compounds already listed, sorted by the value under rRNA inh HTS RFP, ascending.
structure	rRNA inh HTS RFP
C[C@@H]1CN([C@H](C)CO)C(=O)c2cccc(NS(=O)(=O)c3ccccc3)c2O[C@H]1CN(C)S(=O)(=O)c1cccs1	0.4
COc1cccc(CNC(=O)CC2C(=O)NCCN2CCCc2ccccc2)c1 (centres undefined)	4.2
CN1c2ccc(C=O)c3c(C=O)ccc(c23)N(C)C1(C)C	48

One compound at a time, as listed above. Screens in order: FGF22 binding, ALR H2O2 inh, Vif TR-FRET, AF4-AF9 inh, HNF4A DNA FP, rRNA inh HTS, rRNA inh HTS OD600, rRNA inh HTS RFP, E coli growth
Profile of `Clc1ccc(CNc2nc(CN3CCOCC3)nc3scc(-c4ccccc4)c23)cc1` → /, -13, /, /, 1.9, /, /, /, 0.71
Profile of `O=C(NCCc1ccccc1F)C1CCC(=O)N(CCCN2CCCC2=O)C1` (centres undefined) → i, -3, /, -4.6, -1.0, 10, 16, -3.2, 0.69
Profile of `COc1ccc2c(c1)C1=NN(/C(C)=C/C(C)=O)C(c3ccc(F)cc3)C1CC2` (centres undefined) → i, -68, /, 8.5, 9.8, -27, -23, 0.8, 0.65

The list continues:
FGF22 binding | ALR H2O2 inh | Vif TR-FRET | compound | AF4-AF9 inh | HNF4A DNA FP | rRNA inh HTS | rRNA inh HTS OD600 | rRNA inh HTS RFP | E coli growth
i | -1 | -2% | CON(C)C(=O)CC(CN(Cc1ccccc1)C(=O)OC(C)(C)C)c1ccc(Cl)cc1 (centres undefined) | -1.8 | -0.9 | -1 | -9 | -1.1 | 0.69
i | 0 | / | O=C1COc2ccc(S(=O)(=O)Nc3ccc4c(c3)OCO4)cc2N1 | 1.2 | -0.4 | -6 | -4 | 0.5 | 0.68
+ | 95* | / | S=C(Nc1ccc(N2CCOCC2)cc1)Nc1ccc2snnc2c1 | 6.5 | 4.4 | -20* | -8.5* | 3.3* | 0.69
i | -5 | 0% | CC(=O)N(C)c1ccc(NC(=O)Nc2ccccc2C)cc1 | 0.5 | -0.9 | 14 | 10 | 3.4 | 0.71
i | / | / | C[C@@H]1CCCCO[C@@H](CN(C)C(=O)Cc2ccccc2)[C@@H](C)CN([C@@H](C)CO)C(=O)c2cc(NC(=O)Cc3ccccc3)ccc2O1 | 3.6 | / | -2 | -1 | 0.1 | /
i | -7 | -5% | COC(=O)CS(=O)(=O)c1ccsc1C(=O)Nc1ccc(F)cc1 | 0.7 | 2.1 | 1 | -3 | -2.3 | 0.69
i | / | / | O=C(C[C@@H]1C=C[C@H](NC(=O)c2cccnc2)[C@H](CO)O1)NCc1ccc(Cl)c(Cl)c1 | -2.7 | / | -3 | -3 | -1.2 | /
i | / | / | O=C(Cc1ccccn1)N[C@@H]1C=C[C@H](CC(=O)N2CCCCC2)O[C@@H]1CO | 1.1 | / | 3 | 4 | 1.6 | /
i | -25 | 0% | Cc1ccc(NC(=O)CN2CCN(CCN=CC3=C(O)CC(c4ccccc4)CC3=O)CC2)cc1 (centres undefined) | 2.5 | 1.0 | -5 | 7 | 0.6 | 0.74
i | / | / | O=C(CN1CCOCC1)N1CC[C@@H]2[C@@H](CO)Nc3ccc(-c4ccc(F)cc4)cc3[C@@H]21 | -1.1 | / | 2 | 4 | 2.8 | /
i | / | / | C[C@H](CO)N1C[C@H](C)[C@H](CN(C)S(=O)(=O)c2ccc(Cl)cc2)Oc2ccc(NC(=O)C3CCCCC3)cc2C1=O | 0.2 | / | -6 | -5 | -1.3 | /
i | -3 | -10% | Cc1ccc2nc(-c3ccncc3)cc(C(=O)Nc3ccncc3)c2c1 | -0.5 | -1.2 | 13 | 8 | 1.9 | 0.75
/ | -2 | 3% | C#CCOCCOCCOCCNc1nc(N2CCN(C(=O)[C@H]([C@@H](C)CC)n3cc([C@@H](N)CO)nn3)CC2)nc(N2CCN(C(=O)[C@H]([C@@H](C)CC)n3cc([C@@H](N)CC(C)C)nn3)CC2)n1 | / | -18 | / | / | / | /
i | -5 | 1% | O=C(NCCc1cn2ccccc2n1)c1ccc(Br)o1 | -3.2 | -0.9 | -9 | 0 | -3.5 | 0.7
i | / | / | CCCC#Cc1cnc2c(c1)C(=O)N([C@H](C)CO)C[C@H](C)[C@@H](CN(C)C(=O)Nc1c(C)noc1C)O2 | -1.5 | / | 9 | 8 | 0.6 | /
i | -79 | -7% | CCOc1ccc(CN(C)CC(=O)Nc2cccc3ccccc23)cc1OC | -2.6 | -2.0 | -24* | -8.0* | -1.2* | 0.66
i | / | / | Cc1noc(C)c1NC(=O)Nc1ccc2c(c1)C(=O)N([C@@H](C)CO)C[C@@H](C)[C@H](CN(C)S(=O)(=O)c1cccs1)OCCCC[C@@H](C)O2 | 2.3 | / | 0 | -5 | -0.4 | /
/ | / | -3% | Cc1cc(NC(=O)NC(=O)c2ccc(F)cc2F)n[nH]1 | / | 2.7 | / | / | / | 0.68
i | / | / | COc1ccc(-c2ccc([C@@H]3[C@@H](CO)N(C(=O)C4CCCC4)[C@H]3C#N)cc2)cc1 | -5.4 | / | 2 | -1 | -1.2 | /
/ | -7 | 4% | CCC(C)[C@H](NC(=O)NCc1ccccc1Cl)C(=O)O (some centres undefined) | / | 2.2 | / | / | / | 0.68
/ | -11 | 4% | O=S(=O)(CCc1nc2ccccc2o1)c1ccc(Cl)cc1 | / | 1.0 | / | / | / | 0.72
i | 23 | -1% | COc1cc(OC)cc(-n2nnnc2SCC(=O)N2CCCc3ccccc32)c1 | 4.1 | 4.2 | 11 | 6 | 2.7 | 0.71
/ | -2 | -1% | COc1ccc(N(Cc2cc3ccccc3[nH]c2=O)C(=O)C2CCCO2)cc1 (centres undefined) | / | -2.2 | / | / | / | 0.71
i | / | 4% | CC1=C(C(=O)N2CCOCC2)CC(CC(=O)NCCc2ccccn2)C(=O)N1Cc1ccc(C(C)(C)C)cc1 (centres undefined) | 1.5 | 1.9 | 8 | 0 | 3.3 | /
/ | / | -5% | O=C(Nc1ccc(S(=O)(=O)Nc2ncccn2)cc1)c1ccco1 | / | -2.4 | / | / | / | 0.67

Arranged by formula weight (lowest first): part of the list above.
FGF22 binding | ALR H2O2 inh | Vif TR-FRET | compound | AF4-AF9 inh | HNF4A DNA FP | rRNA inh HTS | rRNA inh HTS OD600 | rRNA inh HTS RFP | E coli growth
i | -7 | -5% | COC(=O)CS(=O)(=O)c1ccsc1C(=O)Nc1ccc(F)cc1 | 0.7 | 2.1 | 1 | -3 | -2.3 | 0.69
i | / | / | O=C(Cc1ccccn1)N[C@@H]1C=C[C@H](CC(=O)N2CCCCC2)O[C@@H]1CO | 1.1 | / | 3 | 4 | 1.6 | /
i | -25 | 0% | Cc1ccc(NC(=O)CN2CCN(CCN=CC3=C(O)CC(c4ccccc4)CC3=O)CC2)cc1 (centres undefined) | 2.5 | 1.0 | -5 | 7 | 0.6 | 0.74

Screening data from PubChem BioAssay.

Not all compounds are listed; count on the stated rates, not on these rows.
